RGS16-Gao: modulators of RGS16 binding to Galphao, primary screen, biochemical, human proteins, multiplexed bead flow cytometry. bead-based flow cytometry RGS16-Galphao binding, fluorescence; actives lie on both sides. binding response (% of control), % at 10 µM. hit rate 0.38% among 220,000. AID 1441, 2008. Regulator of G-protein signaling 16 (Homo sapiens) + Guanine nucleotide-binding protein …;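 active = below 25% or above 175%, edge rows of some plates excepted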;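 also: Galphao activated by GDP with aluminum fluoride before binding; 100% = wells without compound and 0% = beads without RGS; some results beyond the cut were filed as inactive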
Target sequence (O15492 whole entry, looked up): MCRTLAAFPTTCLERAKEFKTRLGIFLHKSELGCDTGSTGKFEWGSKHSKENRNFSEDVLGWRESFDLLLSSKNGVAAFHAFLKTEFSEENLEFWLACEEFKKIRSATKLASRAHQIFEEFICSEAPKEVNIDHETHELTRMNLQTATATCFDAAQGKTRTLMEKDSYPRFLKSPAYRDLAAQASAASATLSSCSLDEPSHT
Target sequence (P09471 whole entry, looked up): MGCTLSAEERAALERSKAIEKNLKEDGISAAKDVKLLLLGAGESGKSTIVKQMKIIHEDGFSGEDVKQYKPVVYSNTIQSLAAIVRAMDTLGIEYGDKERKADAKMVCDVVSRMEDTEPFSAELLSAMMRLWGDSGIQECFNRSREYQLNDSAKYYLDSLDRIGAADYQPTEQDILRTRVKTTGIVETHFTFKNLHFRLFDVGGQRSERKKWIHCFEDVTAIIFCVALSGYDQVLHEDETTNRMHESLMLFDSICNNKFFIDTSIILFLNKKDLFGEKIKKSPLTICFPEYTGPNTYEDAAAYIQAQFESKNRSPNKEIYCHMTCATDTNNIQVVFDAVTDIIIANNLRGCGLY
HSV augment: enhancers of HSV replication in host cells, fold increase, host cell viability; HSV replication augmentation in cells; maximum fold increase; hit rate 0.005% among 220,000; AID 1956, 2009;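 active = peak rise of 1.5-fold or more in the series; tested in PC3 cells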;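 also: first round at 10 µM; read as green reporter fluorescence; hits show the peak of a series up to 25 µM; 1 = signal of infected wells without compound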
INS promoter inh: inhibitors of insulin promoter-driven GFP, primary screen, imaging, TRM-6 cells (human fetal islet line), eGFP reporter, cell count; reporter expression induced with tamoxifen; inhibition, % at 2 µM; hit rate 0.9% among 130,000; AID 1273, 2008;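 active = inhibition above the mean plus 3 SD, with well images judged a real hit on visual review, cut at about 60% in these data, passing the limit was not always enough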
PKD1 inh: inhibitors of human PKD1 kinase, biochemical, fluorescence polarization | PKD1 kinase fluorescence polarization assay | inhibition, %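 (about 10 µM by stock and volumes)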 | hit rate 0.056% among 200,000 | AID 797, 2007;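 active = inhibition of 50% or more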;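 also: controls were vehicle for no effect and a reference inhibitor for full effect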
GALR2 ag: GALR2 receptor agonists, primary screen, cell-based; hit rate 0.48% among 140,000; activation, %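 (tested at 5 µM)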; GALR2-expressing cells, agonist activation read-out; Galanin receptor type 2 (Homo sapiens), O43603;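 active = above mean plus 3 SD of all compounds, about 5% in these data, not always enough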;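 also: 0% = vehicle buffer wells and 100% = reference agonist at full effect; tested in CHO reporter cells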
Target sequence (O43603 whole entry, looked up): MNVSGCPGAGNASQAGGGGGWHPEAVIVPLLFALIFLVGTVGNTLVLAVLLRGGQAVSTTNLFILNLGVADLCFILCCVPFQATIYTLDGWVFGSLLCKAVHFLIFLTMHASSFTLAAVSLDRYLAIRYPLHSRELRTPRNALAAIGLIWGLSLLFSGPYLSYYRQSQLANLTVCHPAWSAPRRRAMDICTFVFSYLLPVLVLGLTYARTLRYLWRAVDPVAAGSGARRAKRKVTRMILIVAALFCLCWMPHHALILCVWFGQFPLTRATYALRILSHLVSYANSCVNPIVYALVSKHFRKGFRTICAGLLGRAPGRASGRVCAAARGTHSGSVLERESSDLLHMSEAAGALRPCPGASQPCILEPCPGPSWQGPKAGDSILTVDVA
INS promoter inh cell count: second read-out of INS promoter inh, no call of its own (marks repeat the call); normalized cell count, %; measured here: cell count, toxicity; reference of the scale not given here;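 cells exposed to compound for 48 h; stained nuclei by imaging scaled within each plate; lower means fewer cells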
HSV augment primary fold: second read-out of HSV augment, no call of its own (marks repeat the call); fold increase; compound at 10 µM; measured here: primary screen fold increase 10 uM; tested in PC3 cells;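 GFP signal in the first replicate; 1 = infected wells without compound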
Starred values were filed as active, the others as inactive; i = inactive; · = not tested or not shown. No enrichment for hits; overall some 1.3% were active at least once.

SMILES	RGS16-Gao	HSV augment	HSV augment primary fold	INS promoter inh	INS promoter inh cell count	PKD1 inh	GALR2 ag
O=C(NCc1ccc(/C=c2\sc3n(c2=O)CCN=3)o1)C(=O)Nc1ccccc1	95	i	1	·	·	-4	·
CC(C)(C)CN1CCNC(=O)C1CC(=O)NCc1cccc(-n2cccn2)c1 (configuration not stated)	100	i	1.1	17	59	0	·
Nc1cc(=O)[nH]c(SCC(=O)Nc2ccc(S(=O)(=O)N3CCCCC3)cc2)n1	112	i	1.1	·	·	-3	·
O=C(Nn1c(C2CC2)nc2ccccc2c1=O)c1ccco1	115	i	0.91	·	·	-5	-0.7
Cc1cccc(N2C(=O)SC(SC(=Nc3ccccc3)Nc3ccccc3)C2=O)c1 (configuration not stated)	60	i	0.88	20	80	-1	-1.1
Cc1ccc(C(=O)Nc2ccc3cn[nH]c3c2)cc1S(=O)(=O)N1CCOCC1	83	i	1	·	·	-7	·
COc1cccc(CC2(CO)CCN(Cc3cnc(-c4cccc(C)c4)nc3)CC2)c1	104	i	0.9	·	·	-5	·
COc1ccc(CCNC(=O)CN(c2ccccc2)S(C)(=O)=O)cc1	121	i	0.96	·	·	-5	·
CCn1c(O)c(/C=C2\C=Nc3ccccc32)sc1=Nc1ccccc1	91	i	0.96	·	·	-4	-3.0
Cn1cccc1C(=O)C(=O)Nc1ccc(F)c(F)c1	104	i	0.87	33	143	6	·
Cc1ccccc1OCCOc1ccccc1C=C(C#N)C#N	95	i	0.75	-121	87	-8	0.2
Cc1cc2nc(-c3cc(N4CCOCC4)ccc3[N+](=O)[O-])ccn2n1	106	i	0.98	·	·	-3	·
Cc1ccc(O)c(C2=Nc3ccccc3N=C(c3cccc([N+](=O)[O-])c3)C2)c1	115	i	0.92	43	101	5	·
CN(C)/C=C/C(=O)c1cnc(-c2ccccn2)s1	106	i	0.96	-9	101	-4	·
Cn1c(SCC(=O)NNC(=S)Nc2ccccc2)nnc1-c1ccncc1	100	i	0.97	·	·	·	·

Part of the list above, limited to HSV augment primary fold.
Structure,HSV augment primary fold
CC(C)(C)CN1CCNC(=O)C1CC(=O)NCc1cccc(-n2cccn2)c1 (configuration not stated),1.1
COc1ccc(CCNC(=O)CN(c2ccccc2)S(C)(=O)=O)cc1,0.96
Cc1cc2nc(-c3cc(N4CCOCC4)ccc3[N+](=O)[O-])ccn2n1,0.98

(more compounds)
SMILES	RGS16-Gao	HSV augment	HSV augment primary fold	INS promoter inh	INS promoter inh cell count	PKD1 inh	GALR2 ag
CCC(CC)C(=O)NCCCCc1ccccc1	107	i	1	7	102	-7	-0.7
O=C(c1ccc(F)cc1)N1CCC(O)(c2cccnc2)CC1	79	i	0.84	18	89	-4	-4.0
CCN(CC)c1ccc(NC(=S)NC(=O)c2cccs2)cc1	111	i	1	·	·	-4	·
O=C(CCN1C(=O)C2C3C=CC(C3)C2C1=O)Nc1ccccn1 (configuration not stated)	103	i	0.94	15	137	-2	-0.3
CCCC(NC(=O)CCl)c1ccccc1 (configuration not stated)	107	i	0.82	·	·	-6	-1.6
CCN(CCCNC(=O)CC(C(=O)N1CCc2ccccc21)n1ccnc1)c1cccc(C)c1 (configuration not stated)	87	i	0.77	·	·	-8	-0.8
CN1CCN(C(=O)C2=C[C@H](c3ccc4c(c3)OCO4)C[C@H](OCc3ccc(CO)cc3)O2)CC1	103	i	0.87	·	·	-6	·
CC(C)NS(=O)(=O)c1ccc(NC(=O)C2CC3C=CC2C3)cc1 (configuration not stated)	105	i	0.83	14	132	8	-3.4
CC(C)(C)C(=O)OCc1nc(-c2ccc(Cl)cc2)cs1	100	i	0.95	·	·	·	·
COc1ccc(CSCCc2n[nH]c(=S)n2-c2ccccc2)cc1C	93	i	0.88	·	·	-1	·
O=C(CCn1c(=O)oc2ccccc21)NC1=NCCS1	104	i	0.89	16	186	1	0.1
COc1ccc(N2CCN(C(=O)CN(c3ccc(Br)cc3)S(C)(=O)=O)CC2)cc1	103	i	0.73	75*	27*	-2	0.2
O=C1N/C(=N/Nc2ccccc2)S/C1=C\c1ccccc1	103	·	·	·	·	9	-2.2
CC(C)C(=O)NC(=S)Nc1ccccc1C(=O)NC1CCCCC1	103	i	0.92	25	116	-1	-2.1
COc1ccc(NC(C)c2cc(Cl)ccc2O)cc1 (configuration not stated)	94	i	0.8	-36	134	1	-1.9
Cc1ccc(C2NC(=O)c3ccccc3N2)s1 (configuration not stated)	100	i	0.86	·	·	1	-0.2
CCCCn1c(SCC(=O)N(CC)C2CCS(=O)(=O)C2)nc2cc(S(N)(=O)=O)ccc21 (configuration not stated)	100	i	1	0	97	-8	·
CCCN(CCC)CCOc1cc(C)ccc1C(C)C	107	i	0.86	21	151	-8	0.5
O=C(c1ccccc1)c1nc2ccccc2[nH]c1=O	99	i	0.62	·	·	-4	-1.9
Cn1c(=O)n(CC(=O)Nc2ccc(F)cc2)c2ccccc21	103	i	1.1	26	140	-12	-0.3
Cc1nc2ccccc2nc(=O)c1NNc1ccccc1	102	i	1.1	10	112	7	-2.7
O=C1c2cc3ccccc3c(-c3ccccc3)c2C(=O)N1c1ccccn1	97	i	0.98	10	84	2	1.0
c1cncc(-c2nc(-c3cccs3)cs2)c1	99	i	0.91	·	·	-2	-2.4
N/C(=N\OS(=O)(=O)c1ccc2ccccc2c1)c1cccnc1	104	i	1	·	·	-6	·
Oc1csc(Cc2nc(-c3ccccc3F)cs2)n1	103	i	1.1	20	67	5	·
COc1ccc(CCNc2ccc(C(CC(N)=O)NC(=O)Cc3cccc4ccccc34)cc2[N+](=O)[O-])cc1 (configuration not stated)	85	i	0.79	·	·	·	·
COc1ccc(NC(=O)/C=C/c2cccc(F)c2)cn1	96	i	1.1	-16	93	1	-1.1
COCCN(C(=O)CCl)C(C(=O)NC1CCCCC1)c1ccccc1C (configuration not stated)	106	i	0.96	·	·	5	0.6
O=C(Cc1ccc(Cl)c(Cl)c1)Nc1cccc2ncccc12	105	i	0.98	-133	36	31	·
CCCCn1c(=S)[nH]c2cc(S(=O)(=O)N3CCCCC3)ccc21	97	·	·	·	·	-5	-0.1
CCn1cc([N+](=O)[O-])c(C(=O)N2N=C(c3ccccc3)CC2c2ccc([N+](=O)[O-])cc2)n1 (configuration not stated)	98	i	0.91	-33	77	13	0.0
CNC(=S)N(C)[C@H]1c2c(ccc3ccccc23)OC[C@H]1CO	113	i	0.93	43	135	-2	·
O=C(CCc1ccccc1)NCCc1nc2ccccc2[nH]1	100	i	0.93	-7	98	0	·
Cc1ccc(CSCC(=O)NN=C2CCN(C)CC2)cc1	130	i	1	16	59	1	-0.3
S=c1[nH]nc(CCc2nc3ccccc3[nH]2)n1-c1ccccc1	101	i	1.1	·	·	3	·
CCOC(=O)COn1c(SCC(=O)OCC)nc2ccccc2c1=O	104	i	0.87	-4	67	-4	-2.6
CC(C)C[C@H](NC(=O)c1nc[nH]c1C(=O)NCc1ccccc1)C(=O)OC(C)(C)C	101	i	0.98	·	·	-6	·
O=C(Nc1ccccc1C(F)(F)F)c1c(F)cccc1Cl	98	i	1	-65	76	5	·
N#CC(C#N)=Cc1cccn1-c1ccc(S(N)(=O)=O)cc1	57	i	0.87	·	·	0	·
COc1ccc(CCNC(=O)Cn2nnc(-c3ccc(N4CCOCC4)cc3)n2)cc1OC	109	i	0.81	-73	126	-3	-0.2
COc1ccc(C(=O)NNC(=O)CSc2nnc(C)n2CC2CCCO2)cc1 (configuration not stated)	94	i	1.1	·	·	-6	·
CCC(C)c1ccc(NC(=S)NCc2cccnc2)cc1 (configuration not stated)	89	·	·	·	·	-11	-0.2
CC1CCc2c(C(=O)NCCN3CCOCC3)csc2C1 (configuration not stated)	107	i	0.83	-20	118	-10	0.6
CCN1CCc2nc3ccccc3c(C(=O)Nc3ccc(NC(C)=O)cc3)c2C1	101	i	0.99	·	·	·	·
CCN(Cc1nc(-c2cccc(Cl)c2)no1)CC1CCCO1 (configuration not stated)	93	i	1	·	·	-4	·
O=C(CSCCO)Nc1nccs1	98	i	0.93	-33	78	6	-0.6
O=C1NCCC/C1=N/Nc1ccc(F)cc1	124	i	0.92	27	133	7	·
COc1ccc(CCc2nnc(CCC(=O)N(C)Cc3ccnc4ccccc34)o2)cc1	99	·	·	-10	120	-3	·
COc1ccc(CN2CCN(C(=O)C3CCC(CNS(=O)(=O)c4ccc(C)cc4)CC3)CC2)c(OC)c1OC (configuration not stated)	130	i	0.99	·	·	3	·
Cc1nc2sc(C(c3ccco3)N3CCC(Cc4ccccc4)CC3)c(O)n2n1 (configuration not stated)	102	i	0.84	·	·	-6	-1.1
CCOc1ccccc1-n1c(SCC(=O)Nc2nccs2)nnc1-c1ccoc1C	99	i	0.92	·	·	-1	-1.1
Cc1cc(C(=O)COC(=O)C2=NNC(=O)CC2)c(C)n1-c1ccccc1	102	i	0.9	38	104	-4	-0.7
C/C=C(\C)CN1CCN(c2ccccc2F)CC1	107	i	1.2	·	·	-3	-0.5
CC(CC#CCN1CCOCC1)OCCC#N (configuration not stated)	132	i	0.89	-15	80	3	-1.9
CCOC(=O)COc1cc(N2C(=O)CSCC2=O)c(Cl)cc1Cl	105	i	0.87	13	120	16	-0.3
COc1ccc(N2CCN(C(=O)C3(C)CC3(Cl)Cl)CC2)cc1 (configuration not stated)	106	i	0.99	-17	205	-5	-1.1
O=c1nc2n(c3ncccc13)CCCCC2	107	i	1	20	41	7	·
O=C(COc1cccc(-n2cnnn2)c1)NCCC1=CCCCC1	104	i	0.88	55	125	-12	-1.1
CC1CCN(CCOCCOc2ccccc2Br)CC1	103	i	1	·	·	1	·
CC(=O)c1cccc(N2C(=O)Nc3ccccc3N2O)c1	99	i	0.92	-7	133	-2	·

Exported with values under each structure: part of the list above
Values run as follows: RGS16-Gao, HSV augment, HSV augment primary fold, INS promoter inh, INS promoter inh cell count, PKD1 inh, GALR2 ag
- CCN(CC)c1ccc(NC(=S)NC(=O)c2cccs2)cc1
 : 111, i, 1, ·, ·, -4, ·
- O=C(CCN1C(=O)C2C3C=CC(C3)C2C1=O)Nc1ccccn1 (configuration not stated)
 : 103, i, 0.94, 15, 137, -2, -0.3
- CCCC(NC(=O)CCl)c1ccccc1 (configuration not stated)
 : 107, i, 0.82, ·, ·, -6, -1.6
- CCN(CCCNC(=O)CC(C(=O)N1CCc2ccccc21)n1ccnc1)c1cccc(C)c1 (configuration not stated)
 : 87, i, 0.77, ·, ·, -8, -0.8
- CN1CCN(C(=O)C2=C[C@H](c3ccc4c(c3)OCO4)C[C@H](OCc3ccc(CO)cc3)O2)CC1
 : 103, i, 0.87, ·, ·, -6, ·

(next part)
SMILES	RGS16-Gao	HSV augment	HSV augment primary fold	INS promoter inh	INS promoter inh cell count	PKD1 inh	GALR2 ag
CC1(C)CC(=O)C/C(=N/NC(=O)C2CCN(S(=O)(=O)c3cccs3)CC2)C1	100	i	1.2	·	·	-5	-0.5
O=S(=O)(NC1CCCC1)c1ccc(Br)s1	94	·	·	22	54	-8	-0.6
COc1ccc(/C=C/C(=O)c2ccc[nH]2)cc1OC	101	i	0.85	26	110	-10	-1.3
Cc1cc(Oc2ccccc2)nc(-c2ccccc2O)n1	103	i	1	7	159	1	1.7
CCOC(=O)C1CCN(C(=O)Nc2ccc(OCc3ccccc3)cc2)CC1	85	i	0.79	·	·	·	·
O=S(=O)(c1ccc(Br)s1)N1CCN(c2ccccn2)CC1	100	i	0.77	22	79	-7	-0.2
NNC(=O)CSCc1ccc(Cl)cc1Cl	99	i	1.1	·	·	0	·
CCN(CC)C(=O)N1c2ccccc2CC(N(CC)CC)c2ccccc21 (configuration not stated)	101	i	1.1	-100	137	15	-0.8
NS(=O)(=O)c1cccc(NC(=O)CSc2nc3ccccc3c(=O)n2CCCN2CCOCC2)c1	102	i	1.1	21	152	4	0.1
CC(C)NC(=O)CC(=O)N/N=C/c1c(F)cccc1Cl	103	i	0.97	·	·	-8	·
Cc1oc(-c2cccc(F)c2)nc1CN1CCCCC1CCc1ccccn1 (configuration not stated)	99	i	0.98	-206	78	-1	·
COCCOC(=O)c1[nH]c2c(c1C)C(=O)CC(c1cccs1)C2 (configuration not stated)	96	i	0.78	-154	12	-2	·
COc1ccc(N2CCN(c3cc(C)c4ccc(O)cc4n3)CC2)cc1	107	i	0.98	·	·	-7	0.1

Screens: PubChem, several laboratories
